TRPML1 agonist: qHTS for Agonists of the Human Mucolipin Transient Receptor Potential 1 (TRPML1). AID 624414, 2012. 410,000 compounds, 0.12% hits. Mucolipin-1 (Homo sapiens), Q9GZU1. TRPML1-expressing cells, Ca2+ dye fluorescence, FDSS; host cell line not named in the record; reference of the full effect not given here. activation, % (concentration not given with the values); in the data active = activation above about 50%; inconclusive = about 30% to 50%; inactive = below about 30%; note: 0% is about no effect; the text of the record puts the active cut at 80%
Target sequence (Q9GZU1 whole entry, looked up): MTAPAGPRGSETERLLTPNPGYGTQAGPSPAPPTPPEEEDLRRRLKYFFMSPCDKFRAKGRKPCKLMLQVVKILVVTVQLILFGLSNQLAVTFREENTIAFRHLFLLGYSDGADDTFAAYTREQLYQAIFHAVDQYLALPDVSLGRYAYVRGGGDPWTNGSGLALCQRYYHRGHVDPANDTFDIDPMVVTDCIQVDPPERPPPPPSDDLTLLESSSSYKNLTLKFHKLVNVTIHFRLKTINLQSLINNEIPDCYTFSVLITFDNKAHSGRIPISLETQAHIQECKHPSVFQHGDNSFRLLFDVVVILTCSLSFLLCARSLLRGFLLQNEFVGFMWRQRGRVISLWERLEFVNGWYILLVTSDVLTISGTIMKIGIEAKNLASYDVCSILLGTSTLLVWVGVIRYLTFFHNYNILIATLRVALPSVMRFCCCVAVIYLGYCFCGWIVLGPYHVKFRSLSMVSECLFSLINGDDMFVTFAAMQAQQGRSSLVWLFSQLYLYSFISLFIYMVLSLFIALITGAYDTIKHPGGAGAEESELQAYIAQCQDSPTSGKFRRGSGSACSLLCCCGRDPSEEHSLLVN
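Kinetic FDSS Ca2+ read in Tet-induced TRPML1-DL cells (ABD Ca8 dye plus quencher, 45-90 min RT loading): baseline, then compound, then 110 s agonist window; EC80 agonist 54-4 at 4uM final added afterwards for a 110 s antagonist window.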
D2 PAM: Beta-Arrestin HTS for Positive Allosteric Modulators of the Human D2 Dopamine Receptor: Potentiators. D(2) dopamine receptor (Homo sapiens), P14416. DiscoveRx D2 beta-arrestin cells, luminescence, 90 min; 100% = 57 uM dopamine signal. potentiation, % (test concentration not listed). 360,000 compounds, 0.23% hits. AID 624464, 2012; active = potentiation of 50% or more; inconclusive = 30% to 50%; inactive = 30% or less;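 note: compound concentration not given in the record; tested on top of an EC20 dose of dopamine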
Target sequence (P14416 whole entry, looked up): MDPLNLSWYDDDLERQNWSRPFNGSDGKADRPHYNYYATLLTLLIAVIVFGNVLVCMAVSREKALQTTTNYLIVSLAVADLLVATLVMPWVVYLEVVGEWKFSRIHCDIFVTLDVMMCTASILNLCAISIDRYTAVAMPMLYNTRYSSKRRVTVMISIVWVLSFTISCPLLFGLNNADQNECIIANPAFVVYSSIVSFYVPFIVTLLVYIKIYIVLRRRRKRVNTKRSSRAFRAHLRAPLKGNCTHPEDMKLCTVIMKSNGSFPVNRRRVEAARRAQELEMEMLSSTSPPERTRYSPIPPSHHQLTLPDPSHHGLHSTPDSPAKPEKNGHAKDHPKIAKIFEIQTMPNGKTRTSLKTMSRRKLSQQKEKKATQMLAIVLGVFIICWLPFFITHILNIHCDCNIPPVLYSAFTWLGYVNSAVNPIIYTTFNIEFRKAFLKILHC
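PathHunter beta-arrestin assay in DiscoveRx D2 cells. Compounds were added with an EC20 of dopamine (50 nM final) for 90 min at 37 deg C. Luminescence was read 1 h after detection reagent, with 57 uM dopamine as the EC100 control.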
TRPV1 potentiator: HTS Assay for Compounds that Act as Potentiators of the Vanilloid Receptor 1; AID 540277, 2011; TRPV1-expressing cells, Fluo-8 calcium influx, capsaicin EC20 potentiation; host cell line not named in the record; control for the full effect not named in the record; potentiation, % at 8.33 µM; 320,000 compounds, 0.02% hits; active means potentiation above 80%; inconclusive means 30% to 80%; inactive means below 30%; note: 0% is about no effect
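TRPV1-expressing cells were cultured overnight at 35.5C and loaded with Fluo-8 calcium dye for 40 to 90 min at room temperature. After a 10 s baseline, compound was added and calcium influx was read kinetically for 3 min (ex 480/em 520 nm).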
TRPML1 inh: qHTS for Inhibitors of the Human Mucolipin Transient Receptor Potential 1 (TRPML1) | TRPML1-inducible cells, Ca2+ dye fluorescence, FDSS; stronger effect = lower value; inhibition of EC80 agonist-evoked calcium signal | activity change, negative = inhibition, % (concentration not given with the values) | 390,000 compounds, 0.02% hits | AID 624415, 2012; in the data active means activity change below about -50%; inconclusive means about -30% to -50%; inactive means above about -30%;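 note: stimulus is agonist 54-4 at its EC80 concentration; % is set by controls: 0 for no effect and ±100 for the full control effect; the text of the record puts the active cut at -80%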
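TRPML1-DL cells, Tet-induced overnight (~16 h, 37 °C) at 1,500 cells/well, were loaded with Ca8 no-wash dye plus quencher for 45-90 min at room temperature. Compounds were pinned during FDSS kinetic reading; agonist 54-4 at EC80 (4 uM final) then added.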
Six1-Eya2 inh: qHTS Assay for Inhibitors of the Six1/Eya2 Interaction; activity change, % (test concentration not listed); AID 651725, 2012; Homeobox protein SIX1 (Homo sapiens) + Protein phosphatase EYA2 (Homo sapiens), …; AlphaScreen GST-Six1/His-Eya2 binding, biochemical; stronger effect = lower value; control for the full effect not named in the record; 360,000 compounds, 0.56% hits; in the data active = activity change below about -65%; inconclusive = about -30% to -65%; inactive = above about -30%; note: % is set by controls: 0 for no effect and ±100 for the full control effect
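GST-Six1 + His-Eya2 (5X stock: 250/500 nM); Tris pH 8.0, 300 mM NaCl, 0.05% BSA, 0.02% Tween 20; GSH donor/Ni acceptor beads; 1 h 37 °C dark; AlphaScreen readout.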
CtBP-E1A inh: qHTS Assay for Inhibitors of the CtBP/E1A Interaction; CtBP / adenovirus E1A interaction (AlphaScreen); AlphaScreen GST-E1A/His-CtBP binding, 1536-well; stronger effect = lower value; control for the full effect not named in the record; activity change, % (no concentration beside the values); 340,000 compounds, 0.49% hits; AID 651724, 2012; in the data active means activity change below about -65%; inconclusive means about -30% to -65%; inactive means above about -30%; note: % is set by controls: 0 for no effect and ±100 for the full control effect
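In 5 uL wells, 23 nL compound meets equimolar GST-E1A and His-CtBP (5X stock 125 nM each) for 2 h, 37 °C. Beads (5X, 50 ug/mL) then 1 h, 37 °C, dark.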
An asterisk follows results filed as active; ? = inconclusive; · = not tested or not shown; & = joins results of further samples.

no. | molecule | TRPML1 agonist | D2 PAM | TRPV1 potentiator
1 | Cc1c(C(=O)NC(=S)Nc2cccnc2)cccc1[N+](=O)[O-] | -0.4 | -3 | -6
2 | CCC1(CC)NC(=O)N(CC(=O)NCc2ccc3c(c2)OCO3)C1=O | 1.7 | -15 | -20
3 | CS(=O)(=O)N1CCc2cc(C(=O)OCC(=O)c3ccccc3)ccc21 | 0.0 | -1 | -2
4 | COc1ccccc1OCCCc1c(C)n[nH]c1C | 0.6 | 3 | 2
5 | COc1ccccc1N1CCN(Cc2c[nH]c3ccccc23)CC1 | 0.4 | -20 | -9
6 | C=CCn1c(Sc2nnc(C)s2)nc2c1c(=O)[nH]c(=O)n2C | 1.5 | -6 | 2
7 | CC(=O)Nc1ccc(NC(=O)/C(=C/c2ccco2)NC(=O)c2ccccc2)cc1 | -0.1 | -5 | 2
8 | CC(C)(C)NC(=O)COC(=O)C1c2ccccc2Oc2ccccc21 | -0.2 | 2 | 0
9 | Oc1ccc2ccccc2c1/C=N/c1nccs1 | 1.6 | 9 | 4
10 | O=C(/C=C/c1ccc2c(c1)OCCO2)c1ccc(O)cc1 | 3.3 | -4 | ·
11 | CCOC(=O)c1cccc(NS(=O)(=O)c2c(C)[nH]c(=O)[nH]c2=O)c1 | -0.8 | -4 | -4
12 | O=C(Nc1cnccn1)c1cccs1 | 2.0 | -1 | -7
13 | CC1(c2ccc3c(c2)OCCO3)NC(=O)N(CC(=O)Nc2ccccc2)C1=O (centres undefined) | 1.4 | -3 | -8
14 | O=C1C2C3CCC(C3)C2C(=O)N1c1ccc2ccccc2c1 (centres undefined) | 0.5 | -1 | 2
15 | CCCCSc1nnc(CCC)n1N | -1.2 | -6 | ?

no. | TRPML1 inh | Six1-Eya2 inh | CtBP-E1A inh
1 | 0 | -6 | 4
2 | -13 | 2 | 0
3 | -4 | 4 | 4
4 | 8 | 2 | 0
5 | -1 | -11 | 0
6 | -13 | 5 | -5
7 | -3 | 13 | 4
8 | 9 | 0 | 1
9 | -24 | 9 | 4
10 | 8 | 14 | 1
11 | 7 | 3 | 3
12 | -4 | -8 | -2
13 | -3 | 3 | 11
14 | 4 | 0 | 11
15 | -7 | 2 | -2

Overlap with the part before: 5 entries, then new ones.
no. | molecule | TRPML1 agonist | D2 PAM | TRPV1 potentiator
11 | CCOC(=O)c1cccc(NS(=O)(=O)c2c(C)[nH]c(=O)[nH]c2=O)c1 | -0.8 | -4 | -4
12 | O=C(Nc1cnccn1)c1cccs1 | 2.0 | -1 | -7
13 | CC1(c2ccc3c(c2)OCCO3)NC(=O)N(CC(=O)Nc2ccccc2)C1=O (centres undefined) | 1.4 | -3 | -8
14 | O=C1C2C3CCC(C3)C2C(=O)N1c1ccc2ccccc2c1 (centres undefined) | 0.5 | -1 | 2
15 | CCCCSc1nnc(CCC)n1N | -1.2 | -6 | ?
16 | O=C(Nc1ccc(S(=O)(=O)N2CCCCC2)cc1)c1ccncc1 | 0.5 | 17 | -15
17 | COc1ccc(NS(=O)(=O)c2cccc(Cl)c2Cl)cc1S(=O)(=O)N1CCCCC1 | 0.0 | -12 | 6
18 | C[C@H]1COC(=O)[C@@H](CC(=O)OC(C)(C)C)C/C=C\C[C@@H](CC(=O)N(CCO)Cc2ccccc2)C(=O)N1 | -0.1 | -4 | ·
19 | COc1ccc(N2CCN(CCNC(=O)CCC(=O)NNc3nc4ccccc4c4nc(C)nn34)CC2)cc1 | 0.3 | 1 | 1
20 | O=C(N/N=C\c1ccc(-c2ccccc2[N+](=O)[O-])o1)C1COc2cc3ccccc3cc2O1 (centres undefined) | 1.5 | 7 | 4
21 | O=C(CN1CCN(Cc2ccccc2)CC1)N=Nc1c(O)[nH]c2ccccc12 | 0.9 | -36 | 1
22 | CC(C)CN1C(=O)NC(NC(=O)c2ccco2)(C(F)(F)F)C1=O (centres undefined) | -0.5 | 22 | -3
23 | CCCOc1ccc(C(C)=O)cc1Cc1c(O)nc(SC)[nH]c1=O | 0.4 | -4 | 23
24 | O=C(Nc1ccc(N2CCCC2)cc1)c1ccc2ccccc2c1 | 0.7 | 10 | -7
25 | CC1CC(C)CN(CCOCCSc2ccc(Cl)cc2)C1 (centres undefined) | -0.9 | -5 | -12
26 | O=C(NC1CC1)C1CCN(c2ccc(S(=O)(=O)N3CCOCC3)cc2)CC1 | -0.1 | 6 | -19
27 | CC(C)CC(OC(=O)CC1Sc2ccccc2NC1=O)C(=O)NC1CCCC1 (centres undefined) | -0.9 | -13 | -13
28 | CSc1ccccc1NC(=O)CN(C)C(=O)c1cccc(S(=O)(=O)N(C)C)c1 | -0.2 | -3 | -11
29 | CCOC(=O)N1CCN(C(=O)/C=C/c2cccc([N+](=O)[O-])c2)CC1 | 0.3 | 2 | 3
30 | O=C(CCNS(=O)(=O)c1ccccc1)OCC(=O)c1ccc(Cl)cc1 | -0.3 | -23 | 21

no. | TRPML1 inh | Six1-Eya2 inh | CtBP-E1A inh
11 | 7 | 3 | 3
12 | -4 | -8 | -2
13 | -3 | 3 | 11
14 | 4 | 0 | 11
15 | -7 | 2 | -2
16 | 8 | -6 | -4
17 | 17 | 3 | 7
18 | 2 | 1 | -10
19 | 32 | 7 | ·
20 | -7 | ? | -19
21 | 14 | -1 | -7
22 | -6 | 5 | 4
23 | -12 | -6 | 4
24 | 9 | -4 | -3
25 | 2 | -4 | 2
26 | -2 | 29 | 53
27 | -5 | 4 | 11
28 | -11 | 2 | 1
29 | 5 | 0 | ·
30 | 9 | 7 | 4

The list goes on:
no. | molecule | TRPML1 agonist | D2 PAM | TRPV1 potentiator
31 | O=C(CNC(=O)C1CCCCC1)OCC(=O)c1ccc(Br)cc1 | -1.1&0.8 | -11 | -43
32 | O=S(=O)(Nc1ccccc1O)c1cccc2cccnc12 | -0.4 | 0 | 5
33 | COC(=O)CN1C(=S)N(c2ccc(Cl)cc2)C(=O)C1CC(=O)Nc1ccc(F)cc1 (centres undefined) | 1.6 | -4 | ?
34 | COc1ccc(-n2ccnc2)cc1 | 0.4 | -4 | -24
35 | O=C(CC1C(=O)NCCN1Cc1ccccc1C(F)(F)F)NC1CCCCC1 (centres undefined) | 0.3 | -18 | -3
36 | CCOC(=O)CSC1=C(C#N)C(c2ccccc2F)C(C(C)=O)=C(C)N1 (centres undefined) | 1.9 | 2 | ·
37 | Cc1cc(C(F)(F)F)nc(NCc2ccc(F)cc2)n1 | 1.2 | 5 | 13
38 | CCOC(=O)/C=C/C(=O)Nc1ccc(S(=O)(=O)N(C)c2ccccc2)cc1 | 0.2 | -4 | 11
39 | COc1ccc(Cl)cc1-c1noc([C@@H]2O[C@H](CO)[C@H](O)[C@H](O)[C@H]2O)n1 | -0.3 | -15 | ·
40 | Cc1ccc(-n2ncc(C#N)c2/N=C/N2CCOCC2)cc1 | -0.2 | -9 | ·
41 | CC1(C(=O)NS(=O)(=O)c2ccccc2)CCN1C(=O)CC1CC1 (centres undefined) | -0.5 | -3 | ·
42 | O=C(NC1CCCC1)C(c1ccncc1)N(C(=O)c1csnn1)c1ccccc1 (centres undefined) | -0.2 | -2 | -16
43 | Cc1ccc(NC(=O)CCNS(=O)(=O)c2ccccc2)cc1S(=O)(=O)N1CCOCC1 | -0.4 | -16 | -1
44 | Cc1ccc(C2CC(=O)N3CN(c4ccc(Br)cc4)CSC3=C2C#N)o1 (centres undefined) | -0.1 | -9 | ?
45 | COc1ccc(CCNC(=O)C(=O)c2c(C)n(C)c3ccccc23)cc1OC | -0.6 | 1 | -1

no. | TRPML1 inh | Six1-Eya2 inh | CtBP-E1A inh
31 | -7 | 8 | 2
32 | 0 | -8 | -9
33 | -7 | 3 | 2
34 | -6 | 13 | ·
35 | -7 | 3 | -18
36 | -13 | 12 | 13
37 | 14 | 23 | 21
38 | -23 | -1 | -1
39 | -4 | 3 | 4
40 | 13 | 0 | 0
41 | · | -2 | 0
42 | 21 | 1 | 1
43 | 35 | -2 | 2
44 | -8 | 6 | 9
45 | 41 | 1 | -3

Screen by screen, quoted from above.
Compounds 35–43 in Six1-Eya2 inh read 3, 12, 23, -1, 3, 0, -2, 1, -2

More structures follow:
no. | molecule | TRPML1 agonist | D2 PAM | TRPV1 potentiator
46 | CC[C@]12c3[nH]c4cc(-c5ccco5)ccc4c3CCN1C(=O)[C@@H](CC(=O)NC/C=C(\C)CCC=C(C)C)C[C@@H]2C(=O)N1CCN(C(=O)C2CC2)CC1 | -0.6 | -10 | ·
47 | Cc1ccc(C)c(N2CCN(S(=O)(=O)c3ccc4c(c3)NC(=O)CC(=O)N4)CC2)c1 | -0.3 | -2 | -7
48 | CC(=O)c1cccc(NC(=O)CSc2ccc(-c3sc(C)nc3C)nn2)c1 | 0.3 | 18 | -1
49 | COC(=O)CN(c1ccccc1F)S(=O)(=O)c1ccccc1 | -0.2 | 8 | -4
50 | O=C(Nc1ccc(Br)cc1)c1ccc(N2C(=O)C3CC=C(Cl)CC3C2=O)cc1 (centres undefined) | 1.5 | -22 | -2
51 | CCN1C=C(C(=O)c2ccccc2)C(=O)CC1 | -1.1 | -7 | ·
52 | O=C(C1CCCN(CCCc2ccccc2)C1)N1CCCCCC1 (centres undefined) | -0.2 | -26 | -10
53 | CC(=O)N1CCN(c2ccc(NC(=S)NC(=O)c3ccc(C)c([N+](=O)[O-])c3)cc2)CC1 | -0.5 | -4 | -10
54 | CCc1ccc2c(Cl)c(C(=O)N/N=C/c3c[nH]c4ccccc34)sc2c1 | 0.0 | -4 | 8
55 | CCOc1ccc2[nH]c(=O)c(CN(Cc3ccc(F)cc3)C(=O)N3CCCC3)cc2c1 | -0.1 | -14 | -9
56 | Cc1ccccc1Nc1nc(Cl)c(C=O)s1 | 1.5 | -15 | -7
57 | Cc1ccc(C(=O)c2coc3ccc(O)cc23)cc1 | 1.8 | 0 | -5
58 | CC1(c2ccc(NC(=O)c3ccccc3F)cc2)CC1(Cl)Cl (centres undefined) | 2.3 | -6 | -2

no. | TRPML1 inh | Six1-Eya2 inh | CtBP-E1A inh
46 | 16 | -13 | -6
47 | -10 | 1 | -1
48 | -8 | ? | -4
49 | -6 | 8 | 6
50 | 1 | 14 | -5
51 | -4 | 2 | 4
52 | 6 | -4 | -14
53 | 3 | -16 | -11
54 | 0 | -8 | -8
55 | 0 | 2 | -7
56 | -6 | 11 | -16
57 | 29 | 0 | ·
58 | 32 | 7 | 26

Source: PubChem (National Center for Advancing Translational Sciences (NCATS))
